PrP UTR inh: inhibition of PrP 5' UTR reporter expression | cell-based PrP 5' UTR mRNA reporter, plate reader | inhibition, % (concentration not given with the values) | 340,000 tested, 0.35% active;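 active = every replicate at 50% or more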;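 note: 0 = median of the neutral control wells; tested in H4 reporter cells; numbers are from one replicate; inactives centre near -14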
Sa RN4220 lethal: S. aureus RN4220 growth inhibition | OD600, 16 h | inhibition, % (test concentration not listed) | 330,000 tested, 0.33% active;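 active = z-score of -3 or lower and OD600 up to 0.18 on both plates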;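 note: plate controls were untreated cells for no effect and reference antibiotic for full effect; stock transfer was 100 nL into about 80 µL; one replicate is shown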
Mtb hypoxia rep: Mtb hypoxia fluorescent reporter inhibition | M. tuberculosis hypoxia-regulated fluorescent reporter, fluorescence | fluorescence inhibition, % (test concentration not listed) | 300,000 tested, 0.1% active;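 active = 35 to 45% if threefold the growth effect, above 45% if 1.5-fold the growth effect; inactive = the rest, general growth blockers included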;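 note: wells of about 50 µL received 100 nL stock; 0% = vehicle wells and 100% = reference inhibitor wells; whole bacteria with a GFP reporter of the hypoxia response; strong numbers were not always called active; many hits fall short of the cut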
ugtP null kill: growth inhibition of S. aureus ugtP deletion strain | S. aureus RN4220 ugtP deletion, OD600 growth, 16 h; some inactives read as strong as hits | growth inhibition, % (no concentration beside the values) | 330,000 tested, 0.54% active;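 active = z-score under -3 and OD600 up to 0.15 on both plates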;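 note: plate controls were untreated wells for no effect and antibiotic for full effect; wells of about 80 µL received 100 nL stock; the first replicate is given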
BJeLR lethal: BJeLR cell viability loss. 300,000 tested, 0.17% active. BJeLR (HRASV12) viability, CellTiter-Glo ATP luminescence, 48 h; reference of the scale not given here. inhibition, % (test concentration not listed);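 active = replicate mean above 50%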;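 note: 50 nL library stock added to about 25 µL; numbers are from one replicate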
Autofluor counter: counter-screen for toxin protease inhibitors: compound fluorescence | 360,000 tested, 3.1% active | compound autofluorescence counterscreen, microsphere flow cytometry; stronger effect = higher value | fluorescence intensity (test concentration not listed);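 active = at least 3 SD above the mean of all compounds, about 16000 in these data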;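 note: 100 nL of 1 mM stock went into each well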
Mtb hypoxia rep growth: second read-out of Mtb hypoxia rep, no call of its own (marks repeat the call); growth inhibition, %; measured here: M. tuberculosis growth (absorbance);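 0% = vehicle and 100% = reference antibiotic; read after six days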
Starred values were filed as active, the others as inactive; . = no result given; & = joins results of further samples.

1	CC(NS(=O)(=O)CCNC(=O)c1ccccc1)c1ccccc1 (configuration not stated)
2	O=C(NN=Cc1cn(-c2ccccc2)nc1-c1cc2ccccc2o1)c1ccncc1
3	CCN(C[C@H]1N[C@@](CC)(C(=O)OC)[C@H]2C(=O)N(Cc3ccccc3)C(=O)[C@@H]12)S(=O)(=O)c1ccc(C(C)(C)C)cc1
4	Cc1ccc(C2C(C#N)=C(N)Oc3n[nH]c(-c4cccnc4)c32)o1 (configuration not stated)
5	c1ccc(OCc2cc(-c3ccccc3)no2)cc1
6	O=C1C(Cc2cccc([N+](=O)[O-])c2)SC(=Nc2ccccc2)N1c1ccccc1 (configuration not stated)
7	CCCN1CCN(C(=S)NCc2ccc(Cl)cc2)CC1
8	COc1ccccc1N1CCN(S(=O)(=O)c2cn(C)cn2)CC1
screen / no. | 1 | 2 | 3 | 4 | 5 | 6 | 7 | 8
PrP UTR inh | -25 | . | -7 | 3 | -64 | -1 | -23 | -23
Sa RN4220 lethal | 3.2 | -2.9 | 3.9 | 1.1 | 11 | 1.2 | 3.7 | 0.9
Mtb hypoxia rep | 6 | 5 | -5 | -1 | 1 | 5 | 4 | 10
Mtb hypoxia rep growth | 11 | 2 | -3 | 1 | 4 | 5 | 4 | 1
ugtP null kill | 6 | 39 | -4 | -3 | 16 | 0 | 4 | 3
BJeLR lethal | 1 | . | . | 6 | 4 | -4 | 7 | 25
Autofluor counter | 6126 | . | 3266 | 2474 | 4337 | 2565 | 4434 | 4841

9	O=C(NCc1ccccn1)C(F)(F)C(F)(F)C(=O)NCc1ccccn1
10	Cc1cc(C(=O)NC2CCCc3c2cnn3-c2cccc(C)c2C)c(C)o1 (configuration not stated)
11	O=C(Nc1cccc(S(=O)(=O)N2CCOCC2)c1)c1ccc(N2CCCC2=O)cc1
12	CC(C)CCNC1c2ccccc2C(=O)N1Cc1ccccc1 (configuration not stated)
13	COc1ccc(CCNC(=O)c2ccccc2NC(=O)C2=C(C)OCCS2)c(OC)c1
14	CC(c1ccon1)N(C)Cc1cn(Cc2ccccc2)nc1-c1ccc2c(c1)OCO2 (configuration not stated)
15	Cc1sc2ncnc(N3CCN(S(=O)(=O)c4ccccc4)CC3)c2c1C
16	COc1ccc(C(=O)Nc2ccc(S(=O)(=O)Nc3cc(C)nc(C)n3)cc2)cc1OC
screen / no. | 9 | 10 | 11 | 12 | 13 | 14 | 15 | 16
PrP UTR inh | -15 | -6 | -10 | -28 | -14 | 15 | -12 | -13
Sa RN4220 lethal | 2.3 | 0.5 | 6.0 | 4.9 | 1.7 | -1.5 | 2.1 | 5.5
Mtb hypoxia rep | -6 | 2 | 2 | 2 | 1 | 4 | -3 | -1
Mtb hypoxia rep growth | 2 | 3 | -6 | 6 | 2 | -2 | 7 | 1
ugtP null kill | -1 | 3 | 11 | 13 | 0 | 4 | 7 | 2
BJeLR lethal | -1 | 13 | . | -1 | 4 | 0 | . | -6
Autofluor counter | 3227 | 5631 | 6232 | 4255 | 5031 | 1976 | 3748 | 4167

17	CC(C)N(CCCNC(=O)C1CCN(C(=O)c2cc3sccc3n2C)CC1)Cc1ccccc1
18	Cc1cccc(N=Cc2c(O)[nH]c3ccccc23)n1
19	O=C(N/N=C/c1cccc([N+](=O)[O-])c1)c1ccncc1
20	CN1CCc2nc(SC(C(=O)O)c3ccccc3)c(C#N)c(-c3cccs3)c2C1 (configuration not stated)
21	Cc1cc(Cl)ccc1N1C(=O)CC(NNC(=O)c2cccnc2)C1=O (configuration not stated)
22	OCC1(Cc2ccc(Cl)cc2)CCN(CC2CC=CCC2)CC1 (configuration not stated)
23	O=C(Nc1cccc([N+](=O)[O-])c1)c1cc2ccccc2cc1O
24	COc1ccccc1NC(=O)CC1S/C(=N/N=C(C)C2CCCCC2)NC1=O (configuration not stated)
screen / no. | 17 | 18 | 19 | 20 | 21 | 22 | 23 | 24
PrP UTR inh | 5 | . | -2 | 9 | -1 | -7 | -77 | .
Sa RN4220 lethal | 2.0 | 5.4 | . | 4.8 | . | 7.4 | 34 | 7.1
Mtb hypoxia rep | 11 | 9 | . | 11 | . | 12 | 17 | 1
Mtb hypoxia rep growth | -4 | 8 | . | -1 | . | 8 | 18 | -5
ugtP null kill | 8 | -15 | . | 8 | . | 5 | 3 | 2
BJeLR lethal | 22 | . | -4 | 3 | -12 | 8 | 21 | .
Autofluor counter | 4389 | . | 5038 | 2982 | 2079 | 4582 | 3329 | .

25	COc1cccc(C2=NOC(C(=O)N3CCN(c4ccccc4)CC3)C2)c1OC (configuration not stated)
26	CCc1ccc(N2CC(C)Cn3c2nc2c3c(=O)n(CCN3CCOCC3)c(=O)n2C)cc1 (configuration not stated)
27	CCC1(C)N=c2c(c(=O)n(C)c(=O)n2C)=NO1 (configuration not stated)
28	CN1C(=O)CN=C(c2ccccc2Cl)c2cc(Br)ccc21
29	CN(NC(=O)c1ccccc1)c1ncc(C(F)(F)F)cc1Cl
30	CCN(CC(=O)Nc1c(F)cccc1F)C(=O)c1cc(S(=O)(=O)N(C)C)ccc1N1CCCC1
31	O=C1OCCN1c1c(-c2ccccc2)c(N2CCOCC2)nc2ccccc12
32	COc1ccc(-c2[nH]ncc2CN(C)Cc2cccnc2)c(OC)c1
screen / no. | 25 | 26 | 27 | 28 | 29 | 30 | 31 | 32
PrP UTR inh | 9 | -5 | -32 | -14 | . | -14 | -3 | -5
Sa RN4220 lethal | -4.1 | 9.4 | 0.7 | 2.1 | 2.0 | 0.1 | 5.4 | -3.1
Mtb hypoxia rep | 0 | 14 | . | -1 | 0 | -7 | 9 | 8
Mtb hypoxia rep growth | 12 | 16 | . | 5 | 10 | -1 | 6 | -3
ugtP null kill | -7 | 4 | 0 | -2 | 3 | 1 | 0 | 6
BJeLR lethal | 9 | -1 | 5 | 4 | -6 | 11 | 6 | 0
Autofluor counter | 4564 | 2971 | 4431 | 3459 | . | 7027 | 3042 | 4274

33	CC(C)(C)C(=O)Nc1nnc(SCC(=O)Nc2nccs2)s1
34	Cc1cc(NC(=O)c2ccc3c(c2)C(=O)N(c2cccc(C)c2C)C3=O)no1
35	Cc1cc(S(=O)(=O)Nc2ccc3cn[nH]c3c2)c(C)cc1Cl
36	CC1(CCC(=O)N2CCCC(N3CCN(c4ccc(F)cc4)CC3)C2)CC1 (configuration not stated)
37	Cc1cccc(C(=O)NCC(=O)OCC(=O)c2ccc(C)s2)c1
38	O=C(Nc1cc(Cl)cc(Cl)c1)C(c1ccccc1)N1CCCCC1 (configuration not stated)
39	S=C(Cc1ccccc1)N1CCOCC1
40	COC(=O)c1c(NC(=O)C2CC(C)=C(C)CC2C(=O)O)sc2c1CCCCC2 (configuration not stated)
screen / no. | 33 | 34 | 35 | 36 | 37 | 38 | 39 | 40
PrP UTR inh | -4 | -11 | -15 | -20 | -14 | -4 | -25 | -7
Sa RN4220 lethal | 6.4 | -0.1 | 7.2 | -4.5 | 1.4 | -11 | 3.4 | 3.3
Mtb hypoxia rep | 12 | -3 | 5 | 13 | -2 | 16 | 8 | 5
Mtb hypoxia rep growth | 12 | -6 | 6 | 7 | -13 | 3 | 7 | 6
ugtP null kill | -1 | 3 | 13 | -2 | 3 | -24 | 2 | 1
BJeLR lethal | -4 | 1 | 0 | 4 | . | 6 | . | -2
Autofluor counter | 6166 | 5733 | 4317 | 5926 | 3983 | 2177 | 3516 | 6107

Profiles, looked up by structure. Screens in order: PrP UTR inh	Sa RN4220 lethal	Mtb hypoxia rep	Mtb hypoxia rep growth	ugtP null kill	BJeLR lethal	Autofluor counter
Entry for Cc1cc(C(=O)NC2CCCc3c2cnn3-c2cccc(C)c2C)c(C)o1 (configuration not stated) : -6	0.5	2	3	3	13	5631
Entry for OCC1(Cc2ccc(Cl)cc2)CCN(CC2CC=CCC2)CC1 (configuration not stated) : -7	7.4	12	8	5	8	4582

(further entries)
41	CCOc1ccc(-c2nc(-c3ccncc3)no2)cc1OCC
42	Cc1ccc2c(c1)C(c1ccccc1)C(=O)O2 (configuration not stated)
43	CCC(CC)C1C(C#N)=C(N)Oc2n[nH]c(-c3ccccc3)c21 (configuration not stated)
44	CNC(=O)Nc1ccccc1F
45	O=C(C1=CC(C2CCCCC2)CC(OCCCCO)O1)N1CCN(Cc2ccccc2)CC1 (configuration not stated)
46	Cc1cc(C(F)(F)F)nc(SCC(=O)Nc2nccs2)n1
47	O=C(NCc1cccnc1)c1ccc([N+](=O)[O-])cc1
48	COc1ccccc1NC(=S)N1CCC(NC(=O)c2ccco2)CC1
screen / no. | 41 | 42 | 43 | 44 | 45 | 46 | 47 | 48
PrP UTR inh | -12 | -16 | -3 | -11 | . | -13 | -10 | -44
Sa RN4220 lethal | 4.4 | 5.2 | 3.0 | 1.3 | 2.2&5.0 | 0.1 | 5.2 | -0.3
Mtb hypoxia rep | 13 | 15 | -11 | . | 3&15 | -7 | 3 | 12
Mtb hypoxia rep growth | 6 | -7 | 7 | . | 5&11 | -2 | 4 | 2
ugtP null kill | -10 | 26 | -23 | 2 | 3&-14 | -1 | 12 | 8
BJeLR lethal | 0 | 1 | -5 | -1 | . | 2 | -3 | 3
Autofluor counter | 4662 | 4279 | 9241 | 3682 | . | 4959 | 4321 | 4467

49	CC(=O)NC1=NN(C(C)=O)C(C)(c2ccc(C)o2)S1 (configuration not stated)
50	O=C(CN1C(=O)COc2ccc(S(=O)(=O)N3CCCC3)cc21)Nc1cccc(F)c1
51	CC(O)Cc1cn([C@@H](CCCCN)C(=O)N2CCNCC2)nn1 (some centres not stated)
52	COc1ccc(CSCC(=O)N/N=C/c2ccc(OCC(=O)NCc3ccco3)cc2)cc1
53	CCCc1cc(=O)[nH]c(SCC(=O)N(C)CC(=O)Nc2ccc(F)cc2)n1
54	Cc1nc(C)c(C(=O)C2=C(O)C(=O)N(CCN(C)C)C2c2ccccc2)s1 (configuration not stated)
55	CCOc1ccc(NC(=O)c2nnn(CC(=O)Nc3ccccc3OCC)c2N)cc1
56	COc1cc(N(C)C)c(NC(C)=O)cc1C(=O)O
screen / no. | 49 | 50 | 51 | 52 | 53 | 54 | 55 | 56
PrP UTR inh | -16 | -1 | -10 | -13 | -18 | -15 | -46 | -36
Sa RN4220 lethal | -0.5 | 0.4 | . | . | 4.9 | 3.8 | 2.4 | 1.6
Mtb hypoxia rep | -2 | -3 | . | . | 6 | . | . | 7
Mtb hypoxia rep growth | -8 | 7 | . | . | 5 | . | . | 3
ugtP null kill | 5 | -1 | . | . | 8 | 11 | 2 | 7
BJeLR lethal | -5 | 21 | 2 | 2 | . | 2 | -1 | -13
Autofluor counter | 4583 | 6038 | 3710 | 2939 | 3583 | 3542 | 4364 | 8627

From compound 51 up to 52, copied from above:
51	CC(O)Cc1cn([C@@H](CCCCN)C(=O)N2CCNCC2)nn1 (some centres not stated)
52	COc1ccc(CSCC(=O)N/N=C/c2ccc(OCC(=O)NCc3ccco3)cc2)cc1
screen / no. | 51 | 52
PrP UTR inh | -10 | -13
Sa RN4220 lethal | . | .
Mtb hypoxia rep | . | .
Mtb hypoxia rep growth | . | .
ugtP null kill | . | .
BJeLR lethal | 2 | 2
Autofluor counter | 3710 | 2939

(more compounds)
57	COc1ccccc1CNC(=O)c1cccc(S(=O)(=O)N2CCCC2)c1
58	O=C(CCn1c(=S)oc2ccccc21)Nc1ccccc1Br
59	N#Cc1nc(COc2ccc(F)cc2)oc1N1CCC(Cc2ccccc2)CC1
60	CCOC(=O)N(CC)OC(=O)Nc1ccc(Cl)cc1
61	O=c1c2oc3ccccc3c2ncn1Cc1ccc(Cl)cc1
62	COc1ccc(S(=O)(=O)N[C@H](C(=O)O)C(C)C)cc1
63	O=C(Cc1ccc(Cl)cc1)NNS(=O)(=O)c1ccc([N+](=O)[O-])cc1
64	COc1ccc(NC(=O)c2cnc(SC)n2-c2ccc(F)cc2)c(OC)c1
65	O=C(Cn1nc(C(F)F)cc1C(F)F)N/N=C/c1ccc2c(c1)OCO2
screen / no. | 57 | 58 | 59 | 60 | 61 | 62 | 63 | 64 | 65
PrP UTR inh | -70 | -11 | -4 | -25 | -2 | -14 | -4 | -3 | -12
Sa RN4220 lethal | 1.1 | 6.5 | -6.3 | 2.9 | 3.6 | -7.5 | 10 | -1.7 | .
Mtb hypoxia rep | 2 | 11 | 3 | 1 | 17 | 4 | 14 | 5 | .
Mtb hypoxia rep growth | -18 | 4 | 7 | -6 | 6 | 8 | 4 | 8 | .
ugtP null kill | 2 | -4 | 9 | -5 | 10 | -3 | 1 | 13 | .
BJeLR lethal | . | 1 | 0 | -3 | -8 | 1 | -5 | -11 | 19
Autofluor counter | . | 4052 | 16803* | 4180 | 4344 | 2840 | 2482 | 5625 | 15866

Screening data from PubChem.
